Source: PubChem (several laboratories)
HNF4A DNA FP: change in binding of human HNF4 alpha to DNA. P41235. HNF4a-FITC DNA binding, fluorescence polarization, 1 h. activity change, % at 10 µM. 360,000 compounds, 0.3% hits. AID 1224865; in the data active means activity change above about 30%, passing the limit was not always enough;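 further: controls were the assay level and a saturating level of protein; the project sought stronger binding though the title names inhibitors; some compounds called inactive have numbers as strong as hits; positive values seem to mean higher polarization but the record does not say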
Target sequence (P41235 whole entry, looked up): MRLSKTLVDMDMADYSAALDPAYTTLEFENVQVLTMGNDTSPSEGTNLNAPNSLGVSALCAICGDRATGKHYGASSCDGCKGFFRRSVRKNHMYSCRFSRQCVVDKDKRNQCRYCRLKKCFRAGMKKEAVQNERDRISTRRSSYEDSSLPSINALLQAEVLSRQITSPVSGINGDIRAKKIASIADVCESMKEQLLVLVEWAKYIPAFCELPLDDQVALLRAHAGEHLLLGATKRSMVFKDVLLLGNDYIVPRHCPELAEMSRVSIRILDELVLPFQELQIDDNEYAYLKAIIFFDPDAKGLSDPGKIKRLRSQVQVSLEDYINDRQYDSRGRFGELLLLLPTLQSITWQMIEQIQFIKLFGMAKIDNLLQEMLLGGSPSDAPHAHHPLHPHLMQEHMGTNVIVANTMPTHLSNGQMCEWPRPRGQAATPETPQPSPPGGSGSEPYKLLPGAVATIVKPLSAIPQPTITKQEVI
Vif A3G: inhibitors of Vif binding to APOBEC3G peptide, primary screen, biochemical, TR-FRET, GST-Vif 1-94, biotin-A3G peptide, dose response retest (AID 1117319); 260,000 compounds, 0.57% hits; TR-FRET GST-Vif / biotin-A3G peptide binding; higher % means a stronger effect; test concentration not given here; strong numbers were not always called active; one-dose inhibition, %; IC50 in µM for titrated hits;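 active means above the screen mean plus three standard deviations and confirmed in dose response; inconclusive means results disagree or hit not tested in dose response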;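 further: Vif residues 1-94 fused to GST binding biotinylated APOBEC3G peptide 110-148; 0% = full assay without inhibitor and 100% = GST in place of GST-Vif; retest series ran down from 100 µM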
Ecoli rRNA inh: inhibitors of bacterial rRNA selective over humanized ribosomes | E. coli WT GFP vs humanized-ribosome RFP mutants, fluorescence, 24 h; active compounds read low; DMSO median 0, no signal -100 | GFP signal change (wild-type ribosome), % (no concentration beside the values) | 350,000 compounds, 1.6% hits | AID 720706;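 active means significant combined selectivity score with lowered wild-type GFP, culture density cut under 30%, mutant RFP and density less affected; inactive means any of these conditions unmet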; further: one replicate is shown; some compounds called inactive have numbers as strong as hits
MLL AF4-AF9 inh: blocks AF4 peptide binding to human AF9; P42568; AlphaScreen, biotin-AF4 peptide binding to FLAG-AF9; inhibition, % at 10 µM; 350,000 compounds, 0.47% hits;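 active means every replicate reaching a set inhibition limit, whatever the replicate mean, cut at about 25% in these data; inconclusive means mean inhibition reaches that limit but some replicates miss it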;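 further: 0% = plate neutral control median and 100% = total signal loss; the record names both 10 and 1 µM as test concentration; the first replicate is given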
E coli growth: inhibitors of Escherichia coli growth. OD600, 23 h; active compounds read low. OD600 absorbance (concentration not given with the values). 330,000 compounds, 0.21% hits. AID 1053175;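 active means OD600 absorbance below the run mean of sample wells minus 3.6 SD, in any replicate, cut at about 0.56 in these data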;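 further: stock transfer was 300 nL into about 60 µL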
FGF22 binding: binders of recombinant human FGF22 by thermal shift | 340,000 compounds, 1.5% hits | calls only at 9.99 µM | SYPRO orange fluorescence; percent of sucrose octasulfate shift, DMSO zero;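 active means melting point raised past a set limit in the mean and every replicate; inconclusive means no clear call; three in four hits are not shown here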
Target sequence (Q9HCT0 whole entry, looked up): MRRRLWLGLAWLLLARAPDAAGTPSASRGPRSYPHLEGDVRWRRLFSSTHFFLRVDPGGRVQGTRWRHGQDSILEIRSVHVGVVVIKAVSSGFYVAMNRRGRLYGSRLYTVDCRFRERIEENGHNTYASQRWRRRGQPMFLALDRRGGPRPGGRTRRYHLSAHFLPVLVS
ALR inh: human ALR oxidase inhibition via reduced H2O2. purified ALR, DTT oxidation, H2O2 HRP-luminol luminescence. inhibition, % (no concentration beside the values). 290,000 compounds, 3.8% hits. AID 485317;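 active means mean and each replicate at 75% or more; inconclusive means only one of the two met; inactive means neither met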;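 further: stock transfer was 7.5 nL into about 7.5 µL; 0% = neutral wells and 100% = wells with inactivated enzyme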
Target sequence (P55789 whole entry, looked up): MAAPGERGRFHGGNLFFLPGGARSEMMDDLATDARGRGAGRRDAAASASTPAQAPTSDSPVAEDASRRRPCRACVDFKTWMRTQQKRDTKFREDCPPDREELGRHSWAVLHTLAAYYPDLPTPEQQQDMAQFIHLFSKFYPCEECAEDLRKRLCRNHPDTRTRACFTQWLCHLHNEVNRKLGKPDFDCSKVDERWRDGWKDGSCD
Ecoli rRNA inh OD600: further read-out of Ecoli rRNA inh, marked with its call; OD600 change, %; measured here: OD600 growth;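 optical density of the mix in the first replicate; 0 = DMSO median and -100 = no signal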
Ecoli rRNA inh RFP: further read-out of Ecoli rRNA inh, marked with its call; RFP signal change, %; measured here: RFP humanized mutant strains;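 first replicate; 0 = DMSO median and -100 = no signal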
Numbers without * were called inactive; i = inactive; ? = inconclusive; . = no result given. An excerpt. The share of hits here may be higher or lower than overall.

Short forms: A = HNF4A DNA FP; B = Vif A3G; C = Ecoli rRNA inh; D = Ecoli rRNA inh OD600; E = Ecoli rRNA inh RFP; F = MLL AF4-AF9 inh; G = E coli growth; H = FGF22 binding; I = ALR inh
(1) CCCc1cc(=O)[nH]c(SCC(=O)Nc2ccc(C)cc2)n1
  A = 0.9; B = 12%; C = 4; D = 2; E = -2.6; F = -2.6; G = .; H = i; I = -7
(2) COc1ccc(OC)c(C(=O)CSc2nc3ccccc3n2CC(=O)NC(C)(C)C)c1
  A = -0.1; B = -8%; C = .; D = .; E = .; F = .; G = 0.72; H = .; I = -17
(3) Nc1ccc(C(=O)N/N=C/c2cn(Cc3ccccc3F)c3ccccc23)cc1
  A = 2.8; B = .; C = -8; D = -6; E = -1.1; F = 2.2; G = .; H = i; I = -11
(4) CSc1ccc(CCNC(=O)CN2C(=O)CCSc3ccccc32)cc1
  A = 0.7; B = -3%; C = -13; D = -16; E = -0.1; F = -8.4; G = 0.71; H = i; I = -5
(5) CCCN(CC(=O)Nc1ccccc1C)C(=O)C1CC(=O)N(c2ccc(C)cc2)C1 (configuration not stated)
  A = -0.7; B = -8%; C = 16; D = 6; E = 5.2; F = -1.8; G = 0.62; H = i; I = .
(6) O=C(CNS(=O)(=O)c1ccc2ccccc2c1)OCC(=O)c1ccc(Br)s1
  A = 5.9; B = -51%; C = .; D = .; E = .; F = .; G = 0.64; H = .; I = .
(7) C[C@@H]1CCCCO[C@@H](CN(C)S(=O)(=O)c2cccs2)[C@@H](C)CN([C@@H](C)CO)C(=O)c2cc(NC(=O)Nc3ccc(C(F)(F)F)cc3)ccc2O1
  A = .; B = .; C = 4; D = 8; E = 0.9; F = 2.6; G = .; H = i; I = .
(8) O=C(CCc1nc2ccccc2s1)c1ccccc1
  A = -2.1; B = .; C = .; D = .; E = .; F = .; G = 0.7; H = .; I = -5
(9) CC1(C)CC(=O)C(CCC(=O)c2ccccc2)C(C)(C)N1 (configuration not stated)
  A = -1.2; B = 6%; C = .; D = .; E = .; F = .; G = 0.7; H = .; I = -18
(10) Cc1nnc(SCCN2C(=O)c3ccccc3C2=O)[nH]c1=O
  A = -0.3; B = 18%; C = .; D = .; E = .; F = .; G = 0.71; H = .; I = 1
(11) C=CCn1c(COc2ccc(F)cc2)nnc1SC(C)C(=O)NCC1CCCO1 (configuration not stated)
  A = -3.8; B = 8%; C = .; D = .; E = .; F = -0.8; G = 0.71; H = i; I = -6
(12) Cc1[nH]ccc(=O)c1OCc1c(F)cccc1Cl
  A = -0.6; B = 17%; C = 13; D = 9; E = 3.6; F = 0.4; G = 0.71; H = i; I = 0
(13) O=C(Nc1cccc(C(=O)O)c1)/C(=C\c1ccc2c(c1)OCO2)NC(=O)c1ccc(Br)cc1
  A = 0.7; B = 5%; C = -24; D = -31; E = -5.7; F = -1.3; G = 0.68; H = i; I = 3
(14) Cc1ccc(-n2ncc3c(N4CCN(c5ccc(F)cc5)CC4)ncnc32)c(C)c1
  A = 4.3; B = 11%; C = .; D = .; E = .; F = .; G = 0.69; H = .; I = -1
(15) COc1ccc(-c2csc(NC(=O)CCN3C(=O)C4CC=CCC4C3=O)n2)cc1OC (configuration not stated)
  A = 3.7; B = .; C = -14; D = -26; E = 9.9; F = -6.3; G = .; H = i; I = -6
(16) CCN(CC)c1ccc(/C=N/N2CCN(Cc3ccccc3Cl)CC2)c(O)c1
  A = -1.3; B = .; C = -2; D = 4; E = -0.5; F = 17; G = .; H = i; I = 8
(17) C[C@H](NC(=O)[C@H]1N[C@H]2c3ccc(C4=CCCC4)c(=O)n3C[C@H]2[C@@H]1CO)c1ccccc1
  A = .; B = .; C = 0; D = -11; E = -2.0; F = -0.3; G = .; H = i; I = .
(18) CN1CCN(C2=C(Cl)C(=O)N(Cc3ccccc3)C2=O)CC1
  A = -4.3; B = 14%; C = .; D = .; E = .; F = .; G = 0.65; H = .; I = -12
(19) CCCCCOC(=O)Cn1c(N2CCCCCC2)nc2c1c(=O)[nH]c(=O)n2C
  A = -2.7; B = 0%; C = .; D = .; E = .; F = .; G = 0.72; H = .; I = 2
(20) CCNC(=O)C[C@H]1CC[C@H]2[C@H](COc3ccc(NC(=O)Nc4cccc(C)c4)cc3C(=O)N2C)O1
  A = .; B = .; C = 4; D = 4; E = 0.8; F = 2.0; G = .; H = i; I = .
(21) CN1/C(=C\C(=O)C[n+]2cccc(C(N)=O)c2)C(C)(C)c2ccccc21
  A = 2.6; B = .; C = 11; D = 22; E = 12; F = 0.0; G = 0.69; H = i; I = -3
(22) CCc1cccc(NC(=O)Cn2c(=O)c3cccn3c3ccccc32)c1
  A = 3.7; B = .; C = 9; D = 17; E = -0.5; F = 1.2; G = 0.73; H = i; I = -1
(23) COc1ccc(Cn2c(=S)[nH]c3cc(C(=O)N4CCN(c5ccccc5)CC4)ccc3c2=O)cc1
  A = -1.8; B = .; C = 4; D = 10; E = -2.8; F = 1.5; G = 0.73; H = i; I = 3
(24) CCOc1ccc(NC(=O)CN2C(=O)CCSc3ccc(S(=O)(=O)N4CCCC4)cc32)cc1
  A = 0.1; B = -5%; C = 6; D = 7; E = -3.7; F = 1.0; G = 0.71; H = i; I = -3
(25) O=C(c1ccc([N+](=O)[O-])o1)N1CCN(c2nc3c(Cl)cccc3s2)CC1
  A = -0.8; B = -11%; C = -54; D = -70; E = -17; F = -3.5; G = 0.63; H = i; I = -46
(26) COCCNC(=O)C(=O)NNC(=O)CCc1ccccc1
  A = 1.3; B = .; C = 18; D = 16; E = 1.7; F = -1.4; G = 0.69; H = i; I = .
(27) CN(C)C(=O)C[C@H]1CC[C@H]2[C@@H](COC[C@@H](O)CN2C(=O)C2CCOCC2)O1
  A = .; B = .; C = 1; D = -4; E = 14; F = -2.1; G = .; H = i; I = .
(28) CSc1cccc(NC(=S)NC(=O)CCc2ccccc2)c1
  A = 0.8; B = ?; C = -20; D = -25; E = -6.3; F = 1.2; G = 0.75; H = i; I = -19
(29) O=C(COC(=O)c1cccc(C(F)(F)F)c1)NC(=O)NC1CCCC1
  A = 4.4; B = .; C = -5; D = 0; E = -2.0; F = ?; G = 0.67; H = i; I = 1
(30) Cc1ccc(S(=O)(=O)N2CCN(C(=O)COC(=O)/C=C/c3ccc(Cl)cc3)CC2)c(C)c1
  A = 1.4; B = .; C = 11; D = 7; E = 0.4; F = 0.1; G = 0.66; H = i; I = .
(31) CC(C)NC(C(=O)Nc1cc(Cl)cc(Cl)c1)c1ccccc1 (configuration not stated)
  A = -0.7; B = -4%; C = .; D = .; E = .; F = .; G = 0.69; H = .; I = -2
(32) COc1cccc(CN(CC(=O)NC2CCCC2)C(=O)Cn2nnc(-c3cccs3)n2)c1
  A = 1.9; B = 2%; C = .; D = .; E = .; F = .; G = 0.72; H = .; I = 0
(33) O=C(NNC(=S)Nc1ccc(F)cc1)c1cccc([N+](=O)[O-])c1
  A = 1.6; B = .; C = -14; D = -7; E = -0.1; F = .; G = 0.68; H = i; I = .
(34) CCCc1cn(CC[C@@H]2CC[C@H](NC(=O)C3CC3)[C@@H](CO)O2)nn1
  A = .; B = .; C = 1; D = -4; E = -1.7; F = 1.2; G = .; H = i; I = .
(35) Cc1c(Cl)cccc1NC(=S)N1CCCN(Cc2ccc(F)cc2)C1
  A = -2.0; B = -9%; C = -6; D = -17; E = 3.0; F = -2.1; G = 0.66; H = i; I = 3
(36) CC1C=NC(S(=O)(=O)N2CC[C@H]3[C@@H](CO)N(C)c4ccc(-c5ccccc5)cc4[C@H]32)=N1 (some centres not stated)
  A = .; B = .; C = -3; D = 2; E = 6.7; F = -2.0; G = .; H = i; I = .
(37) CCCNC(=O)C[C@@H]1CC[C@H]2[C@@H](COC[C@H](O)CN2Cc2ccc(Cl)c(Cl)c2)O1
  A = .; B = .; C = -8; D = 2; E = -4.8; F = 2.0; G = .; H = i; I = .
(38) COC(CNC(=O)CCc1c(C)nc2c(c(C)nn2-c2ccc(C)cc2)c1C)OC
  A = 0.1; B = -9%; C = -1; D = 10; E = -1.4; F = -0.9; G = 0.67; H = i; I = -3
(39) CCC(C)CN1C(=O)CN(S(C)(=O)=O)CC1(C)C(=O)NC(C)C (configuration not stated)
  A = 3.0; B = .; C = 11; D = 10; E = 0.1; F = -1.4; G = .; H = i; I = .
(40) COc1cccc(CN(C(=O)CN2C(=O)c3ccccc3S2(=O)=O)C(C(=O)NCC2CCCO2)c2ccco2)c1 (configuration not stated)
  A = -2.7; B = .; C = 0; D = 7; E = -0.3; F = -2.5; G = 0.7; H = i; I = -72
(41) CCNC(=O)C[C@H]1CC[C@@H]2[C@H](COC[C@H](O)CN2C(=O)C2CC2)O1
  A = .; B = .; C = -1; D = 6; E = 1.1; F = -1.9; G = .; H = i; I = .
(42) Cc1cc(C)c(S(=O)(=O)Oc2ccccc2[N+](=O)[O-])c(C)c1
  A = 1.1; B = -3%; C = -9; D = -26; E = -8.6; F = -4.7; G = 0.69; H = i; I = .
(43) CCn1cnc2cc([N+](=O)[O-])ccc21
  A = -1.7; B = 30%; C = -4; D = -2; E = 4.2; F = 0.6; G = 0.7; H = i; I = -41
(44) Cn1c2ccccc2c(=O)c2cc(NCCCN3CCOCC3)ccc21
  A = -2.3; B = .; C = -20; D = -13; E = -5.5; F = -26; G = 0.67; H = i; I = 24
(45) Cc1ccc(S(=O)(=O)NCCOc2nc(N(C)C)nc(N3CCOCC3)n2)cc1
  A = 2.4; B = -6%; C = .; D = .; E = .; F = .; G = 0.75; H = .; I = 4

Gathered by group, the compounds so far containing a nitro group on carbon
Short forms: A = HNF4A DNA FP; B = Vif A3G; C = Ecoli rRNA inh; D = Ecoli rRNA inh OD600; E = Ecoli rRNA inh RFP; F = MLL AF4-AF9 inh; G = E coli growth; H = FGF22 binding; I = ALR inh
(25) O=C(c1ccc([N+](=O)[O-])o1)N1CCN(c2nc3c(Cl)cccc3s2)CC1
  A = -0.8; B = -11%; C = -54; D = -70; E = -17; F = -3.5; G = 0.63; H = i; I = -46
(33) O=C(NNC(=S)Nc1ccc(F)cc1)c1cccc([N+](=O)[O-])c1
  A = 1.6; B = .; C = -14; D = -7; E = -0.1; F = .; G = 0.68; H = i; I = .
(42) Cc1cc(C)c(S(=O)(=O)Oc2ccccc2[N+](=O)[O-])c(C)c1
  A = 1.1; B = -3%; C = -9; D = -26; E = -8.6; F = -4.7; G = 0.69; H = i; I = .
(43) CCn1cnc2cc([N+](=O)[O-])ccc21
  A = -1.7; B = 30%; C = -4; D = -2; E = 4.2; F = 0.6; G = 0.7; H = i; I = -41

Additional results
Short forms: A = HNF4A DNA FP; B = Vif A3G; C = Ecoli rRNA inh; D = Ecoli rRNA inh OD600; E = Ecoli rRNA inh RFP; F = MLL AF4-AF9 inh; G = E coli growth; H = FGF22 binding; I = ALR inh
(46) CCCCSc1nc(C)c(CC(=O)OC)c(=O)[nH]1
  A = 0.6; B = 13%; C = .; D = .; E = .; F = .; G = 0.73; H = .; I = 5
(47) Cc1ccc(C)c(-n2c(CNC(=O)c3ccco3)nnc2SCC(=O)Nc2nnc(C)s2)c1
  A = -1.4; B = -4%; C = -2; D = 5; E = -4.8; F = -1.5; G = 0.78; H = i; I = -38
(48) COCCSc1ccccc1C(=O)NCCCn1ccnc1
  A = -2.0; B = 4%; C = .; D = .; E = .; F = .; G = 0.65; H = .; I = -3
(49) C[C@H](CO)N1C[C@H](C)[C@H](CN(C)C(=O)CN(C)C)Oc2cc(C3=CCCC3)ccc2S1(=O)=O
  A = .; B = .; C = -1; D = -4; E = 0.0; F = -1.5; G = .; H = i; I = .
